# Screening results as filed in PubChem.
# AF4-AF9 inh – inhibitors of AF4 peptide binding to AF9, primary screen, biochemical, AlphaScreen, biotin-AF4 peptide, FLAG-AF9, single point. 350,000 tested, 0.47% active. AID 651704, 2012. inhibition, % at 10 µM;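 active = every replicate reaching a set inhibition limit, whatever the replicate mean, cut at about 25% in these data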;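 also: 0% = plate neutral control median and 100% = total signal loss; the record names both 10 and 1 µM as test concentration; the first replicate is given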
# Target sequence (P42568 whole entry, looked up): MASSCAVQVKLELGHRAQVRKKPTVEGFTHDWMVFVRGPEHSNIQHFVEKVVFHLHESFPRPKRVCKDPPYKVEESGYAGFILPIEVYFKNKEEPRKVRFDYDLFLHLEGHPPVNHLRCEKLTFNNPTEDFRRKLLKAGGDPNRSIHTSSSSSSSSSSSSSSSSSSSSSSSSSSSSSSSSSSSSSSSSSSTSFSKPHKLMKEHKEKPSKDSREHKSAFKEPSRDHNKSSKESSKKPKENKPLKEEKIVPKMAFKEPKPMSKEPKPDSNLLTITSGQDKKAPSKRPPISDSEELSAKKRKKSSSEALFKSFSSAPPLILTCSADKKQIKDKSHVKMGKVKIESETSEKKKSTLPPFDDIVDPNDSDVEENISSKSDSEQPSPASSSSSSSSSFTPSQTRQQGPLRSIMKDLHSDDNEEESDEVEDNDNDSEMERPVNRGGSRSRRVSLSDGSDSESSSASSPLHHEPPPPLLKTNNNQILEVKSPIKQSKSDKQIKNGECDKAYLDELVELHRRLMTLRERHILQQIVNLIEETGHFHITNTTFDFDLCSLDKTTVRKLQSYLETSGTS
# Ecoli rRNA inh – reduced GFP signal of wild-type E. coli, primary screen, bacterial rRNA inhibitor project, GFP/RFP fluorescence, OD600, single point; E. coli WT GFP vs humanized-ribosome RFP mutants, 24 h; stronger effect = lower value; DMSO median 0, no signal -100; GFP signal change (wild-type ribosome), % (test concentration not listed); 350,000 tested, 1.6% active;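 active = significant combined selectivity score with lowered wild-type GFP, culture density cut under 30%, mutant RFP and density less affected; inactive = any of these conditions unmet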; also: one replicate is shown; some compounds called inactive have numbers as strong as hits
# Ecoli rRNA inh OD600 – second read-out of Ecoli rRNA inh, no call of its own (marks repeat the call); OD600 change, %; measured here: OD600 growth;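 optical density of the mix in the first replicate; 0 = DMSO median and -100 = no signal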
# Ecoli rRNA inh RFP – recorded beside Ecoli rRNA inh, whose call it bears; RFP signal change, %; measured here: RFP humanized mutant strains;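 first replicate; 0 = DMSO median and -100 = no signal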
# Numbers without * were called inactive; & = joins results of further samples.
# Every second line gives: AF4-AF9 inh, Ecoli rRNA inh, Ecoli rRNA inh OD600, Ecoli rRNA inh RFP
CCCS(=O)(=O)NC(=O)C1(C)CCN(C(=O)c2c(F)ccc(C)c2F)C1 (configuration not stated)
  -2.5, 3, 14, -0.9
COc1ccc(NC(=O)Nc2cccc3c2O[C@@H](CN(C)Cc2ccc(C(=O)Nc4ccccc4N)cc2)[C@@H](C)CN([C@@H](C)CO)C3=O)cc1
  0.4, -3, -7, -1.4
CN(C)c1ccc2c(c1)[C@H]1C[C@H](CC(=O)NCc3ccncc3)O[C@H](CO)[C@H]1O2
  0.9, -1, -6, -2.6
COC(=O)[C@@]12C[C@@H](CC(=O)NCCC(C)C)C(=O)N(Cc3ccco3)C1=CCC(C)(C)C2
  1.0, -6, -13, -3.3
CN(C)C1CN(Cc2cn(Cc3ccccc3)nn2)S(=O)(=O)C1 (configuration not stated)
  -0.1, 7, 14, -2.9
CN1C(=O)c2cc(NC(=O)Cc3cccs3)ccc2OC[C@H]2O[C@H](CC(=O)NCCCN3CCOCC3)CC[C@H]21
  -0.8, 2, 14, -0.7
C[C@@H]1CN([C@@H](C)CO)C(=O)c2cc(NC(=O)c3ccccc3)ccc2O[C@@H](C)CCCCO[C@H]1CN(C)C(=O)Cc1ccccc1
  -3.5, -1, 2, -0.1
COCCNC(=O)C[C@H]1C[C@H]2c3cc(NC(=O)C4CCC4)ccc3O[C@H]2[C@@H](CO)O1
  -1.4, 0, -2, -1.6
C[C@@H]1CCCCO[C@H](CN(C)Cc2ccc(C(F)(F)F)cc2)[C@H](C)CN([C@H](C)CO)C(=O)c2cc(NC(=O)Nc3ccc4c(c3)OCO4)ccc2O1
  -0.5, 2, 0, 0.7
COc1ccccc1CNC(=O)C[C@H]1CC[C@@H](NC(=O)CC2CC2)[C@@H](CO)O1
  -2.5, -1, 4, -4.3
CCCN1C[C@H](C)[C@H](OC)CN(C)C(=O)c2ccc(NC(=O)COC)cc2OC[C@@H]1C
  -12, 2, 2, -3.3
C[C@H](CO)N1C[C@H](C)[C@@H](CN(C)CC2CCOCC2)Oc2cc(C#CC3CC3)ccc2S1(=O)=O
  5.9, -6, -9, -4.6
C[C@@H]1CN([C@H](C)CO)C(=O)c2cc(NC(=O)Nc3ccc(F)cc3)ccc2O[C@H]1CN(C)S(=O)(=O)c1ccc(Cl)cc1
  1.4, -4, -7, 0.8
C[C@@H]1CCCCO[C@@H](CN(C)C(=O)Nc2ccc3c(c2)OCO3)[C@@H](C)CN([C@H](C)CO)C(=O)c2cc(NC(=O)Nc3ccc(C(F)(F)F)cc3)ccc2O1
  -5.6&2.8, 0&15, 5&8, -1.6&0.9
O=C(N[C@H]1C=C[C@H](CC(=O)N2CCOCC2)O[C@@H]1CO)c1ccc2c(c1)OCO2
  0.5, 2, 3, -3.4
COc1ccc2c(CC(=O)OCC(=O)Nc3cccc(C)c3)coc2c1
  0.4, -2, -8, 4.1
CC(C)(O)C#Cc1cccc(-c2nc(C(=O)NCCCN3CCOCC3)cc3c2[C@@H](CCO)N(S(=O)C(C)(C)C)C3)c1 (some centres not stated)
  -4.5, 2, 5, 1.3
CC(C)NC(=O)N(C)C[C@@H]1Oc2ncc(-c3cc4ccccc4o3)cc2C(=O)N([C@H](C)CO)C[C@@H]1C
  0.2, -11, -5, -1.8
N#CC(Cc1cc2ccccc2n1S(=O)(=O)c1ccccc1)OCc1ccccc1 (configuration not stated)
  -1.1, 9, 8, 2.6
Cn1cnc(S(=O)(=O)N2[C@@H]3CNC[C@H]2C3c2ccc(-c3ccccc3F)cc2)c1 (some centres not stated)
  3.3&2.6, 3&3, 0&7, 1.2&1.0
C[C@H]1CN([C@@H](C)CO)C(=O)c2cc(C#CC3CCCC3)cnc2O[C@H]1CN(C)C(=O)c1ccncc1
  -0.1, 5, 9, -0.1
COc1cccc(NC(=O)N2CC(=O)N3[C@@H](CO)[C@H](c4ccc(C5=CCCCC5)cc4)[C@@H]3C2)c1
  7.5, -18, -40, 26
COc1ccc(CN(C)C[C@@H]2OCCCC[C@H](C)Oc3ccc(NS(=O)(=O)c4cccs4)cc3C(=O)N([C@@H](C)CO)C[C@H]2C)cc1
  4.6, 1, -2, 1.6
COc1ccc(C#Cc2cnc3c(c2)C(=O)N([C@H](C)CO)C[C@H](C)[C@H](CN(C)S(=O)(=O)c2ccc(C)cc2)O3)cc1OC
  4.1, -3, 3, 1.2
COc1ccc(Nc2c(-c3cccc(OC)c3)nc3nc(C)cc(C)n23)cc1
  2.5, 2, 9, 0.7
O=C(C[C@H]1C=C[C@H](NC(=O)CCN2CCCCC2)[C@@H](CO)O1)Nc1ccc(-c2ccccc2)cc1
  4.5, 2, -2, 0.5
C[C@@H]1CN([C@@H](C)CO)C(=O)CCCn2nncc2CO[C@@H]1CN(C)C(=O)c1ccc2ccn(C)c2c1
  -2.7&-1.0&-1.5, -4&0, 5&5, 5.8&1.2
CCOC(=O)C(=O)N(C)c1c(CC)nc2c(OCc3cc(Cl)cc(Cl)c3)cccn12
  0.0, -11, -50, 11
C[C@@H]1CN([C@H](C)CO)C(=O)c2cc(C#Cc3ccccn3)cnc2O[C@@H]1CN(C)C(=O)c1cnccn1
  -5.7, -1, 2, 2.6
CN1[C@H](C(=O)N2CCc3ccccc3C2)[C@@H](CO)[C@@H]2Cn3c(ccc(-c4ccncc4)c3=O)[C@@H]21
  0.1, 0, 3, -0.9

# The last 4 records of the section above come first, to join the parts:
# Every second line gives: AF4-AF9 inh, Ecoli rRNA inh, Ecoli rRNA inh OD600, Ecoli rRNA inh RFP
C[C@@H]1CN([C@@H](C)CO)C(=O)CCCn2nncc2CO[C@@H]1CN(C)C(=O)c1ccc2ccn(C)c2c1
  -2.7&-1.0&-1.5, -4&0, 5&5, 5.8&1.2
CCOC(=O)C(=O)N(C)c1c(CC)nc2c(OCc3cc(Cl)cc(Cl)c3)cccn12
  0.0, -11, -50, 11
C[C@@H]1CN([C@H](C)CO)C(=O)c2cc(C#Cc3ccccn3)cnc2O[C@@H]1CN(C)C(=O)c1cnccn1
  -5.7, -1, 2, 2.6
CN1[C@H](C(=O)N2CCc3ccccc3C2)[C@@H](CO)[C@@H]2Cn3c(ccc(-c4ccncc4)c3=O)[C@@H]21
  0.1, 0, 3, -0.9
COc1ccc(CN(C)C[C@@H]2Oc3ccc(NS(=O)(=O)c4cn(C)cn4)cc3CC(=O)N([C@@H](C)CO)C[C@@H]2C)cc1
  0.1, 6, 4, -1.9
CO[C@H]1CN(C)C(=O)c2cc(NC(=O)C3CC3)ccc2OC[C@@H](C)N(C(=O)CN2CCOCC2)C[C@@H]1C
  -1.4, 4, 3, 1.2
COc1ccc(NC(=O)N2CC(=O)N3[C@@H](CO)[C@H](c4ccc(/C=C/c5ccccc5)cc4)[C@@H]3C2)cc1
  5.7, -1, -24, 22
C[C@@H]1CN([C@H](C)CO)C(=O)Cc2cc(NS(=O)(=O)c3ccc(Cl)cc3)ccc2O[C@@H]1CN(C)S(=O)(=O)c1cccs1
  0.6, -6, -20, 1.8
CC1(c2nnnn2-c2ccc3c(c2)OCCO3)CCC(=O)N1CCc1ccc(O)cc1 (configuration not stated)
  -4.8, -1, 7, 0.4
Cc1ccc(S(=O)(=O)N(C)C[C@@H]2OCCCC[C@H](C)Oc3ccc(NC(=O)Nc4cccc5ccccc45)cc3C(=O)N([C@@H](C)CO)C[C@H]2C)cc1
  0.0, 0, 3, 0.0
O=C(C[C@H]1CC[C@@H](NC(=O)NC2CCCCC2)[C@@H](CO)O1)NCc1ccc(Cl)cc1
  -0.8, -6, -6, -2.8
COc1ccc(NC(=O)N(C)C[C@@H]2Oc3ccc(NC(=O)Cc4cn(C)c5ccccc45)cc3C(=O)N([C@@H](C)CO)C[C@@H]2C)cc1
  2.5, -5, -5, -0.9
CC(C)C#Cc1cnc2c(c1)C(=O)N([C@H](C)CO)C[C@@H](C)[C@@H](CN(C)S(=O)(=O)c1cn(C)cn1)O2
  -1.1, 3, 6, -2.7
C[C@@H]1CN([C@H](C)CO)C(=O)Cc2cc(NS(=O)(=O)c3cccs3)ccc2O[C@H]1CN(C)S(=O)(=O)c1ccc(F)cc1
  -2.4, -1, -2, 0.8
CO[C@H]1CN(C)C(=O)c2cc(NC(=O)C3CC3)ccc2OC[C@@H](C)N(Cc2cncnc2)C[C@@H]1C
  -0.7, 2, 1, -4.9
CN(C)C(=O)c1ccc(-c2ccccc2[C@H]2[C@@H](C#N)N(C(=O)C3CCCCC3)[C@H]2CO)cc1
  -1.3, 1, 4, 1.7
C[C@H](CO)N1C[C@H](C)[C@H](CN(C)CC2CCCCC2)Oc2c(NC(=O)C3CCOCC3)cccc2C1=O
  0.4, 0, 6, -2.1
CCC(=O)N1CC2(C1)[C@H](c1ccc(-c3ccc(C)cc3)cc1)[C@H](CO)N2S(C)(=O)=O
  2.9, -3, -7, 1.5
CO[C@H]1CN(C)C(=O)c2cc(NC(C)=O)ccc2OC[C@@H](C)N(C(=O)c2ccccc2)C[C@H]1C
  2.9, -2, 2, -0.6
COc1ccccc1NC(=O)N1C[C@H](O)COC[C@H]2O[C@@H](CC(=O)NCCc3ccncc3)CC[C@@H]21
  -0.1, 5, 3, -1.9
CC1CCN(C(=O)c2[nH]cnc2C(=O)Nc2ccccc2F)CC1
  -3.4, 7, 12, 3.1
COc1ccc(NC(=O)Nc2ccc3c(c2)CC(=O)N([C@@H](C)CO)C[C@H](C)[C@H](CN(C)C(=O)NC2CCCCC2)O3)cc1
  -1.8, 3, 7, -2.0
O=C(NCc1ccccc1F)[C@H]1[C@H](CO)[C@H]2Cn3c(cccc3=O)[C@H]2N1CC1CC1
  -0.7, 1, 3, 1.3
CC(C)CC#Cc1ccc2c(c1)O[C@H](CN(C)C(=O)Cc1ccccc1)[C@@H](C)CN([C@H](C)CO)S2(=O)=O
  -7.0, -4, -8, 11
COc1ccc(N2C(=O)c3ccccc3NC(=O)C2C(=O)NCC(C)C)cc1 (configuration not stated)
  0.2, 18, 12, 5.2
CCC(=O)N(C)C[C@H]1Oc2ncc(-c3cccc(OC)c3)cc2C(=O)N([C@H](C)CO)C[C@H]1C
  -7.3, -2, 8, -1.7
C[C@H](O)C#Cc1ccc([C@H]2[C@H]3CN(C(=O)Nc4ccccc4)CCCCN3[C@H]2CO)cc1
  -4.6, 2, 11, 0.2
COc1ccc(S(=O)(=O)N2CCC[C@H]2C(=O)N2CCC[C@H]2C(=O)N(C)Cc2ccccc2)cc1C
  -0.2, -17, -11, 11
O=C1NC[C@H](Cc2ccccc2)N(C[C@@H]2CCCN2C[C@H](Cc2ccccc2)N2C[C@H](Cc3ccc(O)cc3)N(CCc3ccccc3)C(=O)C2=O)C1=O
  -0.2, -20, -25, 0.6
COc1cccc(-c2ccc(C3[C@@H]4CN(C(=O)C5CCCC5)C[C@H]3N4)cc2)c1 (some centres not stated)
  4.2, 0&2, -3&2, 4.5&2.6
CC(C)[C@H](C)NC(=O)N(C)C[C@@H]1OCc2ccccc2-c2c(n(C)c3ccccc23)C(=O)N([C@H](C)CO)C[C@H]1C
  -0.9, 1, 2, 1.6
C[C@@H]1CN([C@@H](C)CO)C(=O)c2cc(C#CC3CC3)cnc2O[C@H]1CN(C)Cc1ccccn1
  1.2, 0, 5, 0.3
CO[C@H]1CC[C@@H]2CCOc3ccc(C#N)cc3C(=O)N(C)[C@H](C)C(=O)N(C)C[C@@H]1O2
  0.8, 3, -1, -1.6
C[C@H]1CN([C@@H](C)CO)S(=O)(=O)c2ccc(C#CC3CC3)cc2O[C@H]1CN(C)C(=O)c1cnccn1
  -0.6, -1, -2, 1.2

# Continued.
# Every second line gives: AF4-AF9 inh, Ecoli rRNA inh, Ecoli rRNA inh OD600, Ecoli rRNA inh RFP
CCS(=O)(=O)Nc1ccc2c(c1)C(=O)N(C)C[C@@H](OC)[C@@H](C)CN(Cc1nccs1)[C@@H](C)CO2
  -1.8, -3, -1, -0.6
CO[C@@H]1CN(C)C(=O)c2ccc(NC(=O)C3CCOCC3)cc2OC[C@@H](C)N(C(C)=O)C[C@@H]1C
  -0.6, 4, 5, -2.9
C#CCOCCOCCOCCNc1nc(N2CCN(C(=O)Cn3cc(CCO)nn3)CC2)nc(N2CCN(C(=O)Cn3cc(CCO)nn3)CC2)n1
  -32, 5, 12, 0.2
COc1ccc2c3c([nH]c2c1)[C@@H](CO)N(C(=O)NC(C)C)CC31CN(C(=O)c2cccnc2)C1
  1.8, -3, 3, 0.0
Cc1cc(F)ccc1C(O)c1ncc(-c2cccc(OCc3ccccc3)c2)[nH]1 (configuration not stated)
  2.0, -59, -74, -17
C[C@@H](O)C#Cc1cnc2c(c1)C(=O)N([C@@H](C)CO)C[C@H](C)[C@H](CN(C)C(=O)c1ccc(F)cc1)O2
  -5.5, 5, 6, -4.4
O=C(Nc1ccccc1F)N1CC(=O)N2[C@H](C1)[C@@H](c1ccc(C#Cc3ccccc3)cc1)[C@@H]2CO
  -12, -10, -21, 25
COc1ccc(-c2ccc(CN3C(C)C(=O)N(Cc4cn(CC5CCCCC5)nn4)CCS3(=O)=O)cc2)cc1 (configuration not stated)
  -1.6, 18, 22, -0.4

# Look-ups from the results shown:
# AF4-AF9 inh, CCS(=O)(=O)Nc1ccc2c(c1)C(=O)N(C)C[C@@H](OC)[C@@H](C)CN(Cc1nccs1)[C@@H](C)CO2 is entered as -1.8
# Ecoli rRNA inh OD600, COc1ccc(-c2ccc(CN3C(C)C(=O)N(Cc4cn(CC5CCCCC5)nn4)CCS3(=O)=O)cc2)cc1 (configuration not stated) is entered as 22

# This is a subset (hit frequency here may not be typical).
